2A Renilla: Primary qHTS Assay for Foot and Mouth Disease Virus Antivirals against NCGC Sytravon and CBC Compound Libraries: Renilla Luciferase Signal; AID 1745857, 2022; Potency, µM (titrated, usually from 57.5 µM), inactives show at the top dose signal change, negative = less light; 120,000 compounds, 0.32% hits; HEK cells with a luciferase reporter of 2A StopGo recoding; active means well fitted falling curve with a large enough effect; inconclusive means small, poorly fitted or top-dose-only effect; inactive means no such curve, though single readings can be large or run the other way; also: nearly all actives have a fitted effect of over 55% in size; overnight with compound
StopGo FLuc: Primary qHTS Assay for Foot and Mouth Disease Virus Antivirals against NCGC Sytravon and CBC Compound Libraries: Firefly Luciferase Signal. Potency, µM (top dose mostly 57.5 µM), for the others: at the top dose signal change, negative = less light. HEK cells with a luciferase reporter of 2A StopGo recoding. 120,000 compounds, 0.23% hits; active = well fitted falling curve with a large enough effect; inconclusive = small, poorly fitted or top-dose-only effect; inactive = no such curve, though single readings can be large or run the other way; also: nearly all actives have a fitted effect of over 60% in size; overnight with compound
* hit, by the source's call; ? = inconclusive; [ ] = dose if it differs, or a comment. % is scaled to controls: 0 for no effect and ±100 for the full control effect; potency is read from the fitted curve at half-maximal effect.

SMILES	2A Renilla	StopGo FLuc
CCN(Cc1nc2ccccc2c(=O)[nH]1)C(=O)CNC(=O)c1ccc(C(F)(F)F)cc1	-9%	-4%
Cc1ccc2c(c1)C(c1ccccc1)N(C(=O)c1ccc(S(=O)(=O)N3CCCC3)cc1)CC(=O)N2 (stereo not given)	115%[activator]	37%[activator]
O=C(CN1C(=O)COc2ccc(S(=O)(=O)N3CCCCCC3)cc21)NCc1ccc(Cl)cc1	59%[activator]	-4%
COP(=O)(OC)c1nc(-c2ccccc2)oc1N1CCOCC1	6%	14%
O=C(CN1C(=O)c2cccnc2Oc2ccc(Cl)cc21)NCCCN1CCCCC1	-7%	3%
CCOc1ccc(N2C(=O)CCS2(=O)=O)cc1S(=O)(=O)NCc1ccco1	140%[activator]	19%
COc1ccc(-c2nc3ccc(C)cc3c(C(=O)O)c2C)cc1	-13%	-7%
O=C(CSCc1nc2ccccc2s1)NC1CCCCC1	23%	35%[activator]
Cc1ccc(C)c(N2CCN(c3ncnc4onc(C)c34)CC2)c1	?	?
CCc1ccc2c(c1)c(=O)c(C(=O)c1ccc(C)cc1)cn2CC(=O)Nc1ccc2c(c1)OCCO2	-13%	?
Cc1[nH]c2ccccc2c1C(C(=O)O)N1CCN(c2cc(C)c3ccccc3n2)CC1 (stereo not given)	-9%	8%
CCN(CC)S(=O)(=O)c1ccc(NS(=O)(=O)c2ccc(C(C)C)cc2)cc1	358%[activator]	88%[activator]
Cn1c(=O)c2c(nc(SCC(=O)Nc3ccccc3)n2Cc2ccccc2Cl)n(C)c1=O	-5%	8%
CCOCCOC(=O)c1ccc2c(c1)N(Cc1ccccc1C#N)C(=O)c1ccccc1S2(=O)=O	14%	-2%
O=C(O)c1cccnc1SCc1cccc(Cl)c1	-4%	13%
COc1ccc(Cl)cc1C(=O)NCCc1ccc(S(=O)(=O)NC(=O)NC2CCCCC2)cc1	126%[activator]	3%[11.5 µM]
COc1ccc(N(CC(=O)N2CCN(c3cc(C)ccc3C)CC2)S(=O)(=O)c2c(C)noc2C)cc1	-6%	-23%
Oc1ccc(Cl)cc1C=Nc1ccc(Cl)c(C(F)(F)F)c1	-2%	1%
COc1ccccc1NC(=O)Cn1c(=O)n(Cc2nc(-c3ccccc3)no2)c(=O)c2ccccc21	-4%	-4%
N#Cc1nc(-c2ccc(OCc3ccccc3)cc2)oc1NCCCN1CCOCC1	-3%	20%
Cc1ccsc1C(=O)NCc1cccnc1	8%	11%
COc1ccccc1OCCC(=O)OCC(=O)c1cccc(Cl)c1	-6%	-1%
N#Cc1cc(F)cc(OC[C@@H](O)CN2CCC(C(O)(c3ccccc3)c3ccccc3)CC2)c1	-11%	-8%
Cc1cccc(-c2nc(CN3C(=O)CN=C(c4ccccc4)c4ccccc43)c(C)o2)c1	12%	-16%
COc1cc(/C=N/OCCOc2ccccc2C(C)=O)cc(Cl)c1OC	5%	12%
Additional records follow:
SMILES	2A Renilla	StopGo FLuc
CCOc1ccccc1CNC(=O)CCc1c(C)nn(-c2ccc(N3CCCC3)nn2)c1C	4%	-16%
CC1CCC(NC(=O)c2cc(Sc3ccc(F)cc3)nc3ccccc23)CC1 (stereo not given)	8%	175%[activator]
CCn1cc(C(=O)N2CCN(c3cccc(C)c3C)CC2)c2cc(OC)c(OC)cc2c1=O	54%[activator]	-25%
Cc1cccc(C)c1NS(=O)(=O)c1ccc(NS(=O)(=O)c2ccc3c(c2)OCCO3)cc1	39%[activator]	-24%
CCCNC(=O)N1CCN(S(=O)(=O)c2ccc3c(ccn3C)c2)CC1	-11%	-4%
COC(=O)c1sc(NC(=O)COc2ccc(C)cc2)nc1C	9%	55%[activator]
CCCCN(CC)CCNC(=O)c1nn(-c2ccc(OC)cc2)c(=O)c2c1c1ccccc1n2C	-12%	-21%
Cc1ccc(CCNC(=O)C(NS(=O)(=O)c2ccc3c(c2)oc(=O)n3C)C(C)C)cc1 (stereo not given)	3%	-16%
O=C(c1ccco1)N1N=C(c2c(-c3ccccc3)c3cc(Cl)ccc3[nH]c2=O)CC1c1ccco1 (stereo not given)	?	?
CC(C)c1ccc(C(C)NC(=O)C2CC2)cc1 (stereo not given)	13%	22%
O=C(COc1ccccc1F)Nc1nnc(S(=O)(=O)N2CCCCCC2)s1	-9%	-14%
Cc1c(C(=O)N(Cc2cccc(Cl)c2)Cc2ccco2)oc2ccccc12	4%	-9%
COc1ccc2c(C)cc(SCC(=O)NCC3CCCCC3)nc2c1	-5%	-6%
CCc1ccc(OCC(=O)Nc2cc(-c3nc4cc(C)ccc4o3)ccc2C)cc1	-3%	0%
CCOC(=O)C(=O)C1=C(N2CCOCC2)/C(=C/c2ccccc2)CC1	5%	37%[activator]
Cc1ccc2nc(Cl)c3cc(C(=O)N4CCCC(C)C4)sc3c2c1 (stereo not given)	12%	-2%
CC(C)c1ccc(-n2ccc3nc(N4CCCC4)ncc3c2=O)cc1	-4%	127%[activator]
CCc1nn(CC(=O)NCc2ccccc2)c(=O)c2cccn12	3%	-2%
COc1cc(/C=C2\Oc3c(ccc(OS(C)(=O)=O)c3C)C2=O)cc(OC)c1OC	-3%	19%
Cc1cccn2c3c(c(=O)nc12)C(c1ccc(F)cc1)CC(=O)N3 (stereo not given)	-15%	-4%
Cc1sc(NC(=O)Cn2cnc3c2c(=O)n(C)c(=O)n3C)nc1-c1ccc(OC(F)F)cc1	?	-13%
CC1CCN(C(=O)c2cnc(N3CCOCC3)c3ccccc23)CC1	0%	1%
Cc1ccc(C)c(NC(=O)c2nn(Cc3ccccc3)c(=O)c3ccccc23)c1	-6%	2%
COc1ccc(C(CNC(=O)c2ccc(Cl)s2)N(C)C)cc1 (stereo not given)	-3%	-5%
Cc1ccc(SCCNC(=O)CN(c2cccc(C)c2C)S(C)(=O)=O)cc1	-8%	?

Taken from above, 2 compounds:
SMILES	2A Renilla	StopGo FLuc
CCOc1ccccc1CNC(=O)CCc1c(C)nn(-c2ccc(N3CCCC3)nn2)c1C	4%	-16%
CC1CCC(NC(=O)c2cc(Sc3ccc(F)cc3)nc3ccccc23)CC1 (stereo not given)	8%	175%[activator]

(list continues)
SMILES	2A Renilla	StopGo FLuc
N#Cc1nc(-c2ccc(Cl)cc2)oc1NCc1ccc(F)cc1	25%	118%[activator]
Cc1ccccc1CCNC(=O)c1ccc2c(c1)c(C)c(C)n2C	-3%	39%[activator]
CNC(=O)c1cccc(CNC(=O)C=C(C)C)c1	8%	0%
Cc1c(CCNC(=O)Cc2ccc(F)cc2)sc2nc(-c3ccc(F)cc3)nn12	-8%	1%
NC(=O)COc1cc(OCC(N)=O)c(Cl)cc1Cl	-10%	-3%
COc1ccc(N2CCN(CC(O)COc3c(OC)cccc3OC)CC2)cc1 (stereo not given)	-2%	8%
COc1ccc(NC(=O)c2nnn(-c3cc(Cl)ccc3OC)c2C)cc1	-6%	97%[activator]
Cc1cccc(OC(=O)c2snnc2C)c1	-5%	-6%
Cc1ccc(-c2cc(C(=O)O)c3cccc(Cl)c3n2)cc1	-9%	33%[activator]
COc1ccc(-c2cc(=O)n3[nH]cnc3n2)cc1	-6%	23%
COc1ccccc1CNC(=O)c1cc(S(=O)(=O)N2CCCC(C)C2)cn1C (stereo not given)	0%	1%
Cc1ccc2c(CN3CCN(c4ccccc4)CC3)cc(=O)oc2c1C	9%	25%
COCCn1c2c(c(=O)[nH]c1=O)C(c1ccccc1Cl)C1=C(N2)c2ccccc2C1=O (stereo not given)	141%[activator]	101%[activator]
COc1ccc(OC)c(NS(=O)(=O)c2ccc(-c3coc(C)n3)cc2)c1	55%[activator]	-12%
CCc1ccc(C2CC(c3ccccc3)=NN2c2nc(C)cs2)cc1 (stereo not given)	38%[activator]	78%[activator]
CC(=O)c1cnn(-c2cc(NC3CCCCC3)nc(C)n2)c1C	8%	0%
Oc1ccc(Cl)cc1C=NCc1cccc(Cl)c1	5%	?
N#C/C(=C/c1ccc(OC(F)F)cc1)c1nc2ccccc2[nH]1	102%[activator]	180%[activator]
CC(=O)c1ccc(N2CCN(C(=O)c3cc(S(=O)(=O)N4CCCCCC4)cn3C)CC2)cc1	37%[activator]	86%[activator]
CNS(=O)(=O)c1ccc(C)c(C(=O)Nc2ccc(N3CCCCC3)c3ccncc23)c1	17%	13%
CCC1CN(C(=O)C2CCN(S(=O)(=O)c3c(C)noc3/C=C/c3ccccc3F)CC2)c2cc(C)ccc2O1 (stereo not given)	5%	0%
COc1ccc(CNc2ncnc3c2c(-c2ccccc2)cn3-c2ccc(C)c(Cl)c2)cc1	-13%	-26%
COc1cc(CN2C(=O)C(=O)c3cc(C)ccc32)ccc1OCCC(C)C	-5%	-11%
CCn1nc(C(=O)OCCOc2ccccc2)c2ccccc2c1=O	-7%	3%
O=C(Nc1ccc2c(c1)OCCCO2)c1sc(-c2ccco2)nc1-c1ccccc1	33%[activator]	19%

Record cards, as listed above. Order of values: 2A Renilla	StopGo FLuc
Profile of Cc1sc(NC(=O)Cn2cnc3c2c(=O)n(C)c(=O)n3C)nc1-c1ccc(OC(F)F)cc1 : ?	-13%
Profile of CC1CCN(C(=O)c2cnc(N3CCOCC3)c3ccccc23)CC1 : 0%	1%
Profile of CCn1nc(C(=O)OCCOc2ccccc2)c2ccccc2c1=O : -7%	3%
Profile of COCCn1c2c(c(=O)[nH]c1=O)C(c1ccccc1Cl)C1=C(N2)c2ccccc2C1=O (stereo not given) : 141%[activator]	101%[activator]
Profile of Cc1cccc(-c2nc(CN3C(=O)CN=C(c4ccccc4)c4ccccc43)c(C)o2)c1 : 12%	-16%

Additional compounds.
SMILES	2A Renilla	StopGo FLuc
CN=c1scc(-c2ccccc2)n1C	-9%	-1%
Cc1ccccc1NC(=O)c1ccc(F)c(S(=O)(=O)NC2CCCC2)c1	230%[activator]	-14%
CC1CCN(CC(=O)Nc2cccc3ncccc23)CC1	-2%	-7%
CC(NC(=O)c1ccccc1Br)c1nnc(SCC(=O)N2CCOCC2)n1C (stereo not given)	11%	7%
Clc1ccc(-c2nnc(CSc3nc4ccc(Cl)cc4[nH]3)o2)cc1	4%	39%[activator]
CCCCc1ccc(-c2csc(/C(C#N)=C/c3ccccc3)n2)cc1	10%	11%
CC(=O)N1CCCc2cc(S(=O)(=O)N3CCCC(C(=O)Nc4ccc(C)cc4C)C3)ccc21 (stereo not given)	57%[activator]	-9%
CCC(=O)N1CCc2cc(Br)cc(S(=O)(=O)CCC(=O)NCCc3ccc(OC)c(OC)c3)c21	12%	-6%
N=C(N)c1ccc(COCc2ccccc2)cc1	-8%	-6%
CN(C)CCNC(=O)CCn1ccc2cc(S(=O)(=O)N3CCCCC3)ccc21	45%[activator]	-2%
COc1cc(C(=O)Nc2cccc(-c3nc4ccc(C)cc4o3)c2)cc(OC)c1OC	4%	102%[activator]
CS(=O)(=O)N1CCN(C(C(=O)O)c2c[nH]c3ccccc23)CC1 (stereo not given)	0%	-1%
COc1ccc(NC(=O)c2cc(-c3ccc(C)o3)nc3ccccc23)c(OC)c1	4%	171%[activator]
CN(C)c1ccc(CN2CCc3nc(N4CCN(c5ccccn5)CC4)ncc3C2)cc1	?	?
CN(C)S(=O)(=O)N(CC(=O)Nc1c(F)cccc1F)c1ccccc1	-2%	-3%
O=C(CC1SCCNC1=O)Nc1cc(Cl)ccc1Cl (stereo not given)	4%	143%[activator]
Cc1ccccc1NC(=O)CSC1=Nc2ccccc2C2CC=NN12 (stereo not given)	5%	2%
CCN(C(=O)c1cn(-c2ccc(OC)cc2)c(=O)c2ccccc12)c1cccc(Cl)c1	?	?
Cc1cc(C)cc(OCC(C)N)c1 (stereo not given)	-3%	-2%
COc1ccc(C(=O)c2sc3nc(-c4ccc(F)cc4)ccc3c2N)cc1	-13%	-4%
Cc1ccc(Cl)cc1NC(=O)CCc1ncc(-c2ccc(F)cc2)o1	-15%	38%[activator]
CCc1ccc(CNC(=O)c2cc3n(n2)CCCN(Cc2ccccc2)C3=O)cc1	49%[activator]	-12%
COCC(=O)Nc1cccc(NC(=O)CC2CCCC2)c1	73%[activator]	19%
CC(C)NC(=O)C(C)c1ccc([N+](=O)[O-])cc1 (stereo not given)	-10%[1.06 µM]	5%
CCc1ccc(C(=O)CSc2n[nH]c(CC)n2)cc1	5%	12%
Other structures:
SMILES	2A Renilla	StopGo FLuc
COc1ccc(N2CC(NC(=O)CCCc3ccccc3)CC2=O)cc1 (stereo not given)	-3%	-2%
CCOc1ccc(S(=O)(=O)Nc2nc3ccccc3nc2Nc2ccc(F)cc2)cc1	2%	3%
COC(=O)NC(c1ccc(C)cc1)C(Cl)(Cl)Cl (stereo not given)	-3%	-6%
O=C(CSCc1coc(-c2ccc(Cl)cc2)n1)N1CCCCC1	20µM*	-13%
COCc1ccccc1CNC(=O)c1cccs1	13%	24%
CN(CC(=O)Nc1cccc(F)c1)C(=O)CCc1ncc(-c2ccc(Cl)cc2)o1	-23%	49%[activator]
COc1ccccc1NC(=O)c1nn(C)c(=O)c2ccccc12	16%	32%[activator]
O=S(=O)(/C(=C/c1cccs1)c1nc2ccccc2[nH]1)c1ccccc1	-7%[1.06 µM]	-24%
O=C(CN1c2ccccc2S(=O)(=O)c2ccccc21)Nc1ccccc1Cl	-9%	-20%
CCc1ccc(S(=O)(=O)Nc2ccc3c(c2)sc(=O)n3C)cc1	-1%	-5%
Cc1ccc(S(=O)(=O)c2nc(-c3cccc(C)c3)oc2N2CCCCC2)cc1	-3%	-8%
O=C(CCC(=O)N1CCC(c2noc3ccc(F)cc23)CC1)N1CCOCC1	-18%	-12%
CSc1nnc(-c2nn(C)c3c2CN(S(=O)(=O)c2ccccc2)CC3)n1C	12%	-2%
